# Bioassay records deposited in PubChem by several laboratories.
# Mtb growth: M. tuberculosis H37Rv growth inhibitors, H37Rv strain (AID 1626) | one-dose inhibition, % at 10 µM; IC50 in µM for titrated hits | 220,000 tested, 0.95% active | M. tuberculosis H37Rv growth inhibition; higher % means a stronger effect;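 active = confirmed in a dose series; inconclusive = inhibition above 80% but not taken into the dose series; inactive = below 80% or under 30% at every dose of the series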;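 note: bacteria incubated seven days before Alamar blue readout; 0% = bacteria only wells and 100% = bacteria with antibiotic wells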
# RecA splice inh: Mtb RecA intein splicing inhibitors, primary screen, biochemical, fluorescence, HTS | cell-free RecA intein splicing | 290,000 tested, 0.75% active | Protein RecA (Mycobacterium tuberculosis (strain ATCC 25618 / H37Rv)), P9WHJ3 | inhibition, %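 (about 9 µM by stock and volumes)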; in the data active = inhibition above about 30%; inconclusive = no clear call, values can overlap the other calls;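 note: 0% = vehicle wells and 100% = reference inhibitor control wells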
# Target sequence (P9WHJ3 whole entry, looked up, canonical isoform): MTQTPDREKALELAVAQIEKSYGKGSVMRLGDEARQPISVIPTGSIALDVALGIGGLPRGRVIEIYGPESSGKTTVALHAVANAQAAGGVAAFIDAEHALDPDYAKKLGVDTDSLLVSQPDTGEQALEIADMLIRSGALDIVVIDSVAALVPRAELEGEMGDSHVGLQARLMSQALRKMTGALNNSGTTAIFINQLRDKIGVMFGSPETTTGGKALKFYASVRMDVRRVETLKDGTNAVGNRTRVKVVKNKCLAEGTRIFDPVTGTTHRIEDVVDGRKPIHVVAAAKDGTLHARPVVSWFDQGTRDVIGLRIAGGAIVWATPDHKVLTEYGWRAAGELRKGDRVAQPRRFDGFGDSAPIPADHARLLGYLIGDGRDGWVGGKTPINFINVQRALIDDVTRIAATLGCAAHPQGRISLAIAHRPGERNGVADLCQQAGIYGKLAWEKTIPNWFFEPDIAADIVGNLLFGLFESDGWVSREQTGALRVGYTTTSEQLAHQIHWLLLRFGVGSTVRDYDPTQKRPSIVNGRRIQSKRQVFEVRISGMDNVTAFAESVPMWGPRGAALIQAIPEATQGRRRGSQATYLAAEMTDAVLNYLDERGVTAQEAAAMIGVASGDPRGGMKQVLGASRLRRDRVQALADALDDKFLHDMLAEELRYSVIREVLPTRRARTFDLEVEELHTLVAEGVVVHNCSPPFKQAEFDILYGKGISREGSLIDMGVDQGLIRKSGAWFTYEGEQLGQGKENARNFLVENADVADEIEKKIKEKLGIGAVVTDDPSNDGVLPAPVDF
# YopH PTP inh: YopH tyrosine phosphatase inhibitors, primary screen, biochemical, fluorescence Ex485/Em525; YopH tyrosine phosphatase [Yersinia enterocolitica]; inhibition, %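 (about 10 µM by stock and volumes)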; 140,000 tested, 0.16% active;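 active = inhibition of 50% or more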;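 note: controls were vehicle for no effect and minimum signal wells for full effect; inactives centre near -20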
# Mtb betalactam: beta-lactam sensitization of Mtb H37Rv, H37Rv; inhibition, % at 25 µM; 330,000 tested, 0.27% active; M. tuberculosis H37Rv growth with meropenem, percent inhibition; hits of this screen are not shown here;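 active = about 74% or more and at least 40 points above the plate without the antibiotic, then above 30% in a dose series; inconclusive = first-round hits that could not be retested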;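 note: growth measured after seven days incubation then overnight dye step; 0% = bacteria only wells and 100% = bacteria with antibiotic; twin plates without the antibiotic show which effects depend on it; some results filed as inactive read as strong as hits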
# Arbovirus anti: antivirals against arbovirus infection, primary screen, cell-based, full library, 10K replicate subset | 200,000 tested, 0.37% active | inhibition, % at 10 µM | arbovirus infection cell-based antiviral screen | AID 1251, 2008;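 active = inhibition from about 30%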;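 note: bluetongue infection of BSR cells; cell survival read as ATP light after 72 h; 0% = infected wells without compound and 100% = uninfected wells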
# Arbovirus anti repeat: further read-out of Arbovirus anti, marked with its call; inhibition, %; measured here: 10K subset replicate screen; many hits read low in the repeat;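 first of two repeat runs on a subset; 0% = infected and 100% = uninfected wells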
# * hit, by the source's call; ? = inconclusive; . = not tested or not shown; & = joins results of further samples. This is a subset (hit frequency here may not be typical).
SMILES,Mtb growth,RecA splice inh,YopH PTP inh,Mtb betalactam,Arbovirus anti,others
O=C(CCN1C(=O)C2C3C=CC(C3)C2C1=O)Nc1ccccc1F (configuration not stated),-13%,0.3,-26,9,8,
CCN(CC)S(=O)(=O)c1ccc2c(c1)c(=O)c(C(=O)NCCc1ccccc1)cn2C,.,-0.9,.,99,.,
Cc1cc(N)n(-c2ccc(S(=O)(=O)N3CCCC3)cc2[N+](=O)[O-])n1,0%,10,.,-5,.,
COC(=O)C1CCN(C(=O)COC(=O)c2cccc(NS(=O)(=O)c3ccccc3)c2)CC1,.,-1.8,.,0,.,
COc1cccc(-n2nnc3c(=O)n(Cc4ccccc4F)cnc32)c1,1%,-3.7,-40,1,0,
Cc1ccc2cc(CN(CCN(C)C)C(=S)Nc3ccccc3)c(=O)[nH]c2c1C,0%,-0.5,.,9,10,
O=C(COc1cccc(C(F)(F)F)c1)NNC(=O)Cn1c(=O)cnc2ccccc21,.,-1.1,.,-14,.,
CN(C)S(=O)(=O)c1ccc(C(=O)OCCn2cnc3c2c(=O)n(C)c(=O)n3C)cc1,-12%,-2.0,.,-1,-1,
COc1ccccc1N1CCN(S(=O)(=O)c2ccccc2)CC1,1%,-3.7,21,-3,-5,
N#C/C(=C/c1cn[nH]c1-c1cccc(Br)c1)C(=O)O,-3%,0.9,.,2,.,
O=C(CCNC(=O)Cn1ccc2ccccc2c1=O)NCCc1ccccc1Cl,3%,-2.0,-6,-11,-2,
COc1ccccc1C1NC(=O)CS1 (configuration not stated),-2%,4.8,-37,12,-5,
COc1cc2c(cc1OC)C(C)N(C(=O)CCN1C(=O)C3C4C=CC(C4)C3C1=O)CC2 (configuration not stated),-7%,.,-24,-4,0,
O=C(Nc1nnc(C2CC2)s1)C1CCCO1 (configuration not stated),6%,-0.8,.,-7,-2,
COc1ccc(-c2nc3cc([N+](=O)[O-])ccc3o2)cc1,6%,-1.5,.,-5,-2,

# An excerpt from above in order of count of non-hydrogen atoms, ascending:
SMILES,Mtb growth,RecA splice inh,YopH PTP inh,Mtb betalactam,Arbovirus anti,others
N#C/C(=C/c1cn[nH]c1-c1cccc(Br)c1)C(=O)O,-3%,0.9,.,2,.,
COc1ccc(-c2nc3cc([N+](=O)[O-])ccc3o2)cc1,6%,-1.5,.,-5,-2,
Cc1cc(N)n(-c2ccc(S(=O)(=O)N3CCCC3)cc2[N+](=O)[O-])n1,0%,10,.,-5,.,
Cc1ccc2cc(CN(CCN(C)C)C(=S)Nc3ccccc3)c(=O)[nH]c2c1C,0%,-0.5,.,9,10,
CN(C)S(=O)(=O)c1ccc(C(=O)OCCn2cnc3c2c(=O)n(C)c(=O)n3C)cc1,-12%,-2.0,.,-1,-1,
CCN(CC)S(=O)(=O)c1ccc2c(c1)c(=O)c(C(=O)NCCc1ccccc1)cn2C,.,-0.9,.,99,.,
COC(=O)C1CCN(C(=O)COC(=O)c2cccc(NS(=O)(=O)c3ccccc3)c2)CC1,.,-1.8,.,0,.,

# Next section
SMILES,Mtb growth,RecA splice inh,YopH PTP inh,Mtb betalactam,Arbovirus anti,others
CCN(CC)c1c([N+](=O)[O-])ncn1C,-2%,2.1,-17,2,-1,
CCOC(=O)N1CCC(N2CC34C=CC(O3)C(C(=O)Nc3ccc(F)cc3)C4C2=O)CC1 (configuration not stated),-5%,-0.1,-27,3,4,Arbovirus anti repeat=2
CC12CCC(C(=O)NCCCN3CCOCC3)(OC1=O)C2(C)C (configuration not stated),-2%,2.4,-1,-9,-2,
CC(C)(C)SCCNS(=O)(=O)c1ccc(Cl)cc1,11%,-1.3,.,1,4,
CC(C)c1ccc(NS(=O)(=O)c2ccc3c(c2)NC(=O)CO3)cc1,.,1.1,.,5,.,
COc1ccc(/C=C2\SC(=S)N(CC(=O)N(C)C3CCS(=O)(=O)C3)C2=O)cc1 (configuration not stated),.,2.8,.,3,.,
CCN(CC)c1ccc(/C=N/N2CCN(Cc3ccccc3)CC2)c(O)c1,6%,0.1,-9,45,17,
COc1ccc(CC(=O)N(c2ccccc2)c2nc(C)cs2)cc1,14%,2.8,-20,-2,-12,
COc1ccc(N2CC(C(=O)N/N=C/c3ccc([N+](=O)[O-])cc3)CC2=O)cc1 (configuration not stated),68%,4.2,.,-5,-6,
N#C/C(=C/c1ccc(OCc2ccccc2)cc1)C(=O)NC1CCCCC1,-11%,0.9,-18,-2,-30,
O=C(Cn1nnc(-c2cccs2)n1)N1CCOCC1,-2%,-1.1,.,1,1,
O=c1[nH]c(=O)n(Cc2ccccc2)c(O)c1C=NCCN1CCOCC1,2%,0.5,-37,1,4,
Clc1cc(Br)ccc1OCCOCCOc1cccc2cccnc12,8%,3.3,0,11,5,
COc1cc(C(=O)Nc2ccc(N3CCOCC3)cc2)ccc1OCc1c(C)noc1C,7%,1.2,-10,4,-7,
COc1ccc(C(=O)N2CCC(C(=O)NC3CC3)CC2)cc1,.,-3.0,.,2,.,
O=C(OC1Cn2c(=O)ccc(=O)n2C1)c1ccc([N+](=O)[O-])cc1,2%,-1.4,-28,-4,2,
CCn1cc(C(=O)N2CC(C)CC(C)C2)c(=O)c2cc(S(=O)(=O)N3CCCC3)ccc21 (configuration not stated),.,0.9,.,-2,.,
COCCNc1nc(-n2nc(C)cc2C)nc2sc3c(c12)CCCC3,.,5.2,-37,88,-24,
Clc1cc(Br)ccc1OCCCNCc1ccccc1,23%,5.9,-10,90,-34,
Cn1c(C(=O)N2CCCC(Nc3ccc(F)cc3)C2)cc2ccccc21 (configuration not stated),.,2.8,.,1,.,
O=C(c1cc(Br)c(Br)s1)N1CCN(c2ccccn2)CC1,.,3.1,.,2,.,
CCn1c(CSc2nc3ccccc3[nH]2)nc2cc(C(=O)O)ccc21,-10%,-0.3,-26,?,6,
CN1CCN(C(=O)c2cc3sccc3n2CC(=O)c2ccccc2)CC1,-4%,0.7,-16,-2,8,
CN(C(=O)C1CCN(S(=O)(=O)c2cccs2)CC1)C1CCCCC1,1%,0.7,-48,2,1,
CC(C(=O)O)n1nc2ccccc2n1 (configuration not stated),1%,4.6,-42,-3,5,
COc1ccc(NC(=O)Cc2ccc(Cl)cc2Cl)cn1,6%,-2.4,.,14,10,
O=C(CN1CCN(c2ccccc2F)CC1)NC(=O)NCc1ccco1,0%,.,.,-3,6,
CC(C)Cc1[nH]c(=O)c(C#N)c2c1COC(C)(C)C2,-12%,0.6,-22,-2,3,
Nc1nc(SCC(=O)N2N=C3/C(=C/c4ccco4)CCCC3C2c2ccco2)n[nH]1 (configuration not stated),5%,7.1,-7,1,9,
CCOC(=O)CSc1nnc(-c2ccccc2)o1,27%,-0.7,-19,97,3,

# Grouped by structure, those above containing a furan ring, fused or not (2)
SMILES,Mtb growth,RecA splice inh,YopH PTP inh,Mtb betalactam,Arbovirus anti,others
O=C(CN1CCN(c2ccccc2F)CC1)NC(=O)NCc1ccco1,0%,.,.,-3,6,
Nc1nc(SCC(=O)N2N=C3/C(=C/c4ccco4)CCCC3C2c2ccco2)n[nH]1 (configuration not stated),5%,7.1,-7,1,9,

# More structures follow.
SMILES,Mtb growth,RecA splice inh,YopH PTP inh,Mtb betalactam,Arbovirus anti,others
COc1ccc(OC)c(/C=C2\S/C(=N/NC(=O)c3ccc4ccccc4c3)NC2=O)c1,3%,-6.4,-12,8,-8,
CCOc1ccc(C(=O)Nc2ccccc2NC(C)=O)cc1OCC,1%,-0.9,.,3,0,
Cn1nc(C(=O)NCc2ccccc2)c2c1-c1ccccc1S(=O)(=O)C2,.,-1.0,.,-1,.,
CCN(C(C)=O)c1nnc(CSc2nc3ccccc3s2)s1,-6%,1.8,-20,.,6,
CC(C)C(NC(=O)c1ccccc1Br)c1ccccc1 (configuration not stated),6%,2.4,.,-5,2,
O=C(CN(Cc1ccco1)S(=O)(=O)c1ccccc1)N/N=C/c1cccc(O)c1,-2%,.,-5,-9,-4,
COc1ccc(O)c(N)c1,-1%,6.3,.,.,-13,
Cc1ccc(C)c(OCCn2cc(/C=C(/C#N)C(=O)NCC3CCCO3)c3ccccc32)c1 (configuration not stated),7%,-4.5,-5,2,-20,
CCCCNC(=O)CNC(=S)N(CCCN1CCOCC1)Cc1cccs1,-4%,-1.2,1,-7,-4,
Fc1ccc(C(c2nnnn2Cc2cccs2)N2CCN(C3CCCC3)CC2)cc1 (configuration not stated),2%,1.0,29,-6,12,
O=C(COc1ccc(Br)cc1)Nc1ccccc1N1CCCC1,0%,0.8,.,9,-8,
O=C(O)c1cc(-c2ccccc2)nc2ccccc12,-5%,3.8&-1.6,-27,2,0,
O=C(NCCCN1CCCCC1)c1ccc2c(c1)NC(=O)c1ccccc1S2,.,-0.1,.,-6,.,
CC(=O)Nc1ccc(SCC(=O)Nc2cc(C(C)(C)C)nn2-c2ccccc2)cc1,16%,.,-18,-11,-6,
Cc1ccc(C(=O)N2CCCC(N3CCN(c4ccccc4C)CC3)C2)c(=O)[nH]1 (configuration not stated),.,-2.3,.,3,.,
CCN(CC)CCN(C(=O)CCS(=O)(=O)c1ccccc1)c1nc2cc3c(cc2s1)OCO3,.,-0.8,.,-5,.,
CCn1c(Oc2ccccc2)nc2c1c(=O)n(C)c(=O)n2C,.,1.2,.,2,.,
CC(Oc1ccccc1)C(=O)N1CCc2ccccc2C1 (configuration not stated),.,-0.3,.,-1,.,
O=C(CNCc1ccc(Cl)cc1)Nc1ccc(C(=O)N2CCCCC2)cc1,.,2.7,.,-10,.,
CCCn1c(/C=C/c2ccccc2)nc2ccccc21,12%,4.6,-19,60,-4,
Cc1cc(C(=O)NNC(=O)c2ccc(Cl)cc2)no1,-3%,4.4,.,41,.,
CC(=O)N(Cc1cc(=O)[nH]c2ccccc12)c1cccc(C)c1,7%,6.4,-38,2,2,
CNC(=S)NCCc1ccccc1,3%,-2.9,.,-2,.,
CCCCOc1ccc(C(=O)OCC(=O)NC2CCCC2)cc1,.,1.7,.,29,.,
Cc1cc(C(=O)N2CCN(C(c3ccccc3)c3ccccc3)CC2)no1,1%,2.2,-19,?,-9,
CCOc1ccc(Cn2c(=O)sc3ccccc32)cc1,6%,1.7,.,-4,.,
COc1ccc(CCNC(=O)CCCCCN2C(=O)c3ccccc3C2=O)cc1OC,2%,-2.4,-17,-3,4,
CCC(C)NC(=O)CS(=O)Cc1nc(-c2cccc(OC)c2)oc1C (configuration not stated),3%,0.9,1,-7,2,Arbovirus anti repeat=4
CN(C)CCn1cnc2c1c(=O)n(C)c(=O)n2C,.,1.5,.,3,.,
CC(=O)c1c(C)[nH]c(C(=O)NCc2ccccc2Cl)c1C,-2%,0.4,-26,1,-4,
CCn1ncc(Br)c1C(=O)Nc1cccc(C(C)=O)c1,.,0.5,.,1,.,
Cc1ccc(NC(=O)CS(=O)CC(=O)NC23CC4CC(CC(C4)C2)C3)cc1 (configuration not stated),.,0.1,.,-1,.,
CN(C(=O)COC(=O)c1cc[n+]([O-])cc1)c1ccccc1,.,-2.0,.,-20,.,
O=C(NCCc1ccccc1)C(=S)N1CCCCC1,-2%,-0.3,.,-9,3,
COc1cc(NC(=O)C2CCCN(c3ncccn3)C2)cc(OC)c1 (configuration not stated),8%,2.4,4,-2,-10,
COC(=O)c1cccc(NC(=O)c2cnn(C)c2)c1,.,-0.6,.,-2,.,
CC(=O)Nc1cccc(NC(=O)CCCC2CCCCC2)c1,.,3.7,.,-4,.,
Cc1ccc(NCc2n[nH]c(=S)n2-c2ccccc2)cc1Cl,.,-3.6,.,-10,23,
Cc1c(Cl)c(=O)oc2cc(OC(C)C)ccc12,3%,-4.0,-15,-3,-5,
COCc1c(C(=O)OCC(=O)NCCN2C(=O)CSC2=O)oc2ccccc12,4%,-0.1,-9,-1,4,
CCn1nnnc1NC(=O)c1cccc(OC)c1,3%,.,.,-4,3,
CCCCCCCCN1[C@@H](CC(=O)OCC)c2ccc(C(F)(F)F)cc2S1(=O)=O,-1%,0.1,.,-12,.,
Cc1cccc(OCC(=O)NCCCNC(=O)c2ccncc2)c1,.,1.2,.,3,.,
COc1ccc(OC)c(C(c2nnnn2CCc2ccccc2)N2CCC(C(N)=O)CC2)c1 (configuration not stated),-8%,1.9,-15,-4,0,
COCCNC(=O)C(c1ccc(F)cc1)N(C(=O)CCC(=O)Nc1nccs1)c1ccc(C)cc1 (configuration not stated),-5%,1.0,.,0,-1,
CCS(=O)(=O)N1CCCC(C(=O)NC2CCCCC2C)C1 (configuration not stated),-7%,1.3,5,-4,5,
C(=N\N1CCN(Cc2cccc3ccccc23)CC1)/c1ccco1,1%,.,10,17,-26,
COc1ccc(-c2c(C)c3cc(O)ccc3oc2=O)cc1OC,.,-1.7,.,4,.,
Clc1ccc(Nc2nc(-c3cccnc3)cs2)cc1,11%,1.1,-11,26,13,
Cc1ccc2ccccc2c1NC(=O)c1ccco1,.,-2.1,.,35,.,
